Bioassay records: PubChem BioAssay, Broad Institute
Ecoli rRNA inh: inhibitors of bacterial rRNA selective over humanized ribosomes; E. coli WT GFP vs humanized-ribosome RFP mutants, fluorescence, 24 h; hits give low values; DMSO median 0, no signal -100; GFP signal change (wild-type ribosome), % (no concentration beside the values); actives 1.6% (n = 350,000);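 active = significant combined selectivity score with lowered wild-type GFP, culture density cut under 30%, mutant RFP and density less affected; inactive = any of these conditions unmet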; note: one replicate is shown; some compounds called inactive have numbers as strong as hits
FGF22 binding: binders of recombinant human FGF22 by thermal shift; calls only at 9.99 µM; Q9HCT0; SYPRO orange fluorescence; percent of sucrose octasulfate shift, DMSO zero; actives 1.5% (n = 340,000); AID 651658;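 active = melting point raised past a set limit in the mean and every replicate; three in four hits are not shown here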
Target sequence (Q9HCT0 whole entry, looked up): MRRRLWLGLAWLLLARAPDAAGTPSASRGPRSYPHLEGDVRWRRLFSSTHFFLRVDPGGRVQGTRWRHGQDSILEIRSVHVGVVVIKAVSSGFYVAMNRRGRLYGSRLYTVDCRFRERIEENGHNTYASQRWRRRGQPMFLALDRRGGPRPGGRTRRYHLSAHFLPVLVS
Ecoli rRNA inh OD600: also measured in Ecoli rRNA inh; calls as there; OD600 change, %; measured here: OD600 growth;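 optical density of the mix in the first replicate; 0 = DMSO median and -100 = no signal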
Ecoli rRNA inh RFP: second read-out of Ecoli rRNA inh, no call of its own (marks repeat the call); RFP signal change, %; measured here: RFP humanized mutant strains;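 first replicate; 0 = DMSO median and -100 = no signal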
* hit, by the source's call; i = inactive; & = joins results of further samples. Only part of the results is shown; the hit share may differ from the screen's.

no.	SMILES	Ecoli rRNA inh	Ecoli rRNA inh OD600	Ecoli rRNA inh RFP	FGF22 binding
1	CCNC(=O)Nc1ccc2c(c1)C(=O)N(C)[C@@H]1CC[C@@H](CC(=O)NCc3cccc(F)c3)O[C@H]1CO2	2	2	-0.2	i
2	C[C@H](CO)N1C[C@H](C)[C@H](CN(C)C(=O)NC2CCCCC2)OCCCC[C@H](C)Oc2ccc(NC(=O)c3ccccc3)cc2C1=O	-5	-11	0.2	i
3	C[C@@H]1CCCCO[C@@H](CN(C)S(=O)(=O)c2cn(C)cn2)[C@@H](C)CN([C@H](C)CO)C(=O)c2cc(NC(=O)Cc3ccccc3)ccc2O1	2	0	-3.1	i
4	COC(=O)C[C@@H]1CC[C@H]2[C@H](COc3ccc(NC(=O)NCc4ccccc4)cc3C(=O)N2C)O1	-1	-7	-0.7	i
5	C[C@@H]1CCCCO[C@H](CN(C)CC2CC2)[C@@H](C)CN([C@@H](C)CO)C(=O)c2cc(NS(=O)(=O)c3cccs3)ccc2O1	2	1	1.6	i
6	C[C@H]1CN([C@@H](C)CO)C(=O)Cc2cc(NC(=O)Nc3ccc(C(F)(F)F)cc3)ccc2O[C@@H]1CN(C)Cc1ccc(Oc2ccccc2)cc1	4	-4	2.0	i
7	Cc1ccccc1CN1CCN(C(=O)[C@H]2O[C@@H](n3cnc(C(N)=O)n3)[C@H](O)[C@@H]2O)CC1	13	18	0.8	i
8	Cc1[nH]c2ccccc2c1CC(=O)Nc1ccc(Nc2cccnc2)c(-c2ccc(F)c(F)c2)c1	-5	-9	4.7	i
9	CNC(=O)C[C@H]1CC[C@@H]2[C@H](COc3ccc(NC(=O)Cc4cccs4)cc3C(=O)N2C)O1	0	0	10	i
10	O=C(Nc1ccccc1F)N1C[C@@H]2[C@H](c3ccccc31)[C@H](CO)N2C(=O)Nc1ccccc1	-50	-74	-10	i
11	CCCNC(=O)C[C@@H]1C[C@H]2c3cc(NC(=O)c4cccnc4)ccc3O[C@H]2[C@H](CO)O1	0	0	-2.7	i
12	O=C(C[C@@H]1CC[C@H]2[C@@H](COC[C@@H](O)CN2Cc2nccs2)O1)NCc1ccccc1Cl	-4	1	-2.7	i
13	C[C@H]1CN([C@@H](C)CO)C(=O)Cc2cc(NS(C)(=O)=O)ccc2O[C@H]1CN(C)C(=O)Nc1ccc2c(c1)OCO2	3	7	-0.6	i
14	O=C(C[C@H]1CC[C@@H]2[C@H](COC[C@@H](O)CN2Cc2ccc(Cl)cc2)O1)NCc1cccc(F)c1	-7	-6	-0.8	i
15	C[C@@H]1CN([C@@H](C)CO)C(=O)Cc2cc(NC(=O)Cn3cnnn3)ccc2O[C@@H]1CN(C)C(=O)Nc1cccc2ccccc12	3	-1	-0.7	i
16	C[C@@H]1CN([C@H](C)CO)C(=O)Cc2cc(NC(=O)Nc3ccccc3)ccc2O[C@@H]1CN(C)C(=O)Nc1ccc(C(F)(F)F)cc1	1	-10	1.2	i
17	O=S(=O)(c1ccccc1F)N1C[C@@H]2N[C@H](C1)C2c1ccc(-c2cncnc2)cc1 (stereo partly specified)	8	12	-1.4	i
18	C[C@@H]1CCCCO[C@H](CN(C)S(=O)(=O)c2ccc(F)cc2)[C@H](C)CN([C@@H](C)CO)C(=O)c2cc(NS(=O)(=O)c3ccc(F)cc3)ccc2O1	-2	8	0.1	i
19	CN1c2ccc(-c3ccc(F)cc3)cc2[C@@H]2[C@@H](CCN2C(=O)c2cccnc2)[C@H]1CO	-8	-24	4.8	i
20	CC(C)c1[nH]nc2c1C(c1ccccc1)NC2=O (stereo unspecified)	18	14	3.5	i
21	CCCNC(=O)C[C@H]1C[C@@H]2c3cc(NS(=O)(=O)c4ccccc4)ccc3O[C@@H]2[C@H](CO)O1	1	1	-2.8	i
22	CCCNC(=O)N[C@H]1CC[C@@H](CCn2cc(C3CCCC3)nn2)O[C@H]1CO	-1	6	-1.2	i
23	COc1cccc(NC(=O)N(C)C[C@@H]2Oc3cc(C#Cc4ccccc4)ccc3S(=O)(=O)N([C@@H](C)CO)C[C@H]2C)c1	0	-4	-1.9	i
24	O=C(C[C@H]1CC[C@@H]2[C@H](COC[C@H](O)CN2Cc2cc(F)ccc2F)O1)NCc1ccc(Oc2ccccc2)cc1	-25	-31	17	i
25	C[C@H]1CCCCO[C@@H](CN(C)Cc2ccc(C(F)(F)F)cc2)[C@@H](C)CN([C@@H](C)CO)C(=O)c2cc(NC(=O)Nc3ccccc3)ccc2O1	-1	4	2.2	i

Laid out differently: entries from further up.
Values run as follows: Ecoli rRNA inh	Ecoli rRNA inh OD600	Ecoli rRNA inh RFP	FGF22 binding
(1) CCNC(=O)Nc1ccc2c(c1)C(=O)N(C)[C@@H]1CC[C@@H](CC(=O)NCc3cccc(F)c3)O[C@H]1CO2
  2	2	-0.2	i
(2) C[C@H](CO)N1C[C@H](C)[C@H](CN(C)C(=O)NC2CCCCC2)OCCCC[C@H](C)Oc2ccc(NC(=O)c3ccccc3)cc2C1=O
  -5	-11	0.2	i
(3) C[C@@H]1CCCCO[C@@H](CN(C)S(=O)(=O)c2cn(C)cn2)[C@@H](C)CN([C@H](C)CO)C(=O)c2cc(NC(=O)Cc3ccccc3)ccc2O1
  2	0	-3.1	i
(4) COC(=O)C[C@@H]1CC[C@H]2[C@H](COc3ccc(NC(=O)NCc4ccccc4)cc3C(=O)N2C)O1
  -1	-7	-0.7	i
(5) C[C@@H]1CCCCO[C@H](CN(C)CC2CC2)[C@@H](C)CN([C@@H](C)CO)C(=O)c2cc(NS(=O)(=O)c3cccs3)ccc2O1
  2	1	1.6	i
(6) C[C@H]1CN([C@@H](C)CO)C(=O)Cc2cc(NC(=O)Nc3ccc(C(F)(F)F)cc3)ccc2O[C@@H]1CN(C)Cc1ccc(Oc2ccccc2)cc1
  4	-4	2.0	i
(7) Cc1ccccc1CN1CCN(C(=O)[C@H]2O[C@@H](n3cnc(C(N)=O)n3)[C@H](O)[C@@H]2O)CC1
  13	18	0.8	i
(8) Cc1[nH]c2ccccc2c1CC(=O)Nc1ccc(Nc2cccnc2)c(-c2ccc(F)c(F)c2)c1
  -5	-9	4.7	i
(9) CNC(=O)C[C@H]1CC[C@@H]2[C@H](COc3ccc(NC(=O)Cc4cccs4)cc3C(=O)N2C)O1
  0	0	10	i

Remaining list, next part
no.	SMILES	Ecoli rRNA inh	Ecoli rRNA inh OD600	Ecoli rRNA inh RFP	FGF22 binding
26	N#Cc1ccc(-c2ccc(C3[C@H]4CNC[C@@H]3N4C(=O)NC3CCCCC3)cc2)cc1 (stereo partly specified)	-1	-15	-3.5	i
27	C[C@@H]1CCCCO[C@@H](CN(C)CC2CCCCC2)[C@@H](C)CN([C@H](C)CO)C(=O)c2cc(NC(=O)CCC(F)(F)F)ccc2O1	1	-8	-2.6	i
28	O=C(C[C@H]1CC[C@H]2[C@@H](COC[C@H](O)CN2Cc2cccc(-c3ccncc3)c2)O1)N1CCOCC1	2	13	0.7	i
29	C#CCN1C[C@@]2(O)CC[C@@H](O)[C@@H](OC)[C@@H]2[C@@]1(C)[C@H](O)CC=C(C)C	44	29	2.2	i
30	COc1ccc(NC(=O)N(C)C[C@@H]2Oc3ccc(NC(=O)Nc4c(C)noc4C)cc3C(=O)N([C@H](C)CO)C[C@@H]2C)cc1	2	5	-0.6	i
31	O=C(C1CC1)N1CC[C@@H]2[C@H]1c1cc(C#Cc3ccc(F)cc3)ccc1N[C@@H]2CO	-26	-63	5.2	i
32	Cc1noc(C)c1S(=O)(=O)N(C)C[C@@H]1OCCCC[C@@H](C)Oc2ccc(NS(=O)(=O)c3ccc(F)cc3)cc2C(=O)N([C@@H](C)CO)C[C@@H]1C	2	-2	-2.1	i
33	COc1cccc(C2NC(=S)NC(C)=C2C(C)=O)c1 (stereo unspecified)	28	57	3.7	i
34	O=S(=O)(c1ccc(F)cc1)N1CC[C@H]2[C@H](CO)Nc3ccc(-c4ccc(F)cc4)cc3[C@H]21	-26	-64	9.4	i
35	C[C@H](O)C#Cc1ccc2c(c1)O[C@@H](CN(C)C(=O)c1ccncc1)[C@H](C)CN([C@H](C)CO)S2(=O)=O	6	11	-1.2	i
36	COc1cccc(NC(=O)N2C[C@@H](O)COC[C@H]3O[C@H](CC(=O)NCCCN4CCOCC4)CC[C@@H]32)c1	-2	0	-2.4	i
37	CN1[C@H](C(=O)NCCCN2CCOCC2)[C@@H](CO)[C@@H]2Cn3c(ccc(/C=C/c4ccccc4)c3=O)[C@@H]21	-1	-1	-2.6	i
38	CNC(=O)C[C@H]1CC[C@H]2[C@H](COc3ccc(NC(=O)C(C)C)cc3C(=O)N2C)O1	1	5	-1.3	i
39	CN1C(=O)c2cc(NC(=O)c3ccc(F)c(F)c3)ccc2OC[C@@H]2O[C@H](CC(=O)O)CC[C@@H]21	-2	1	-1.6	i
40	COCCNC(=O)C[C@H]1CC[C@@H]2[C@@H](COc3ccc(NC(C)=O)cc3C(=O)N2C)O1	4	3	-0.8	i
41	COc1ccccc1C(=O)N1CCC2CCN(C(=O)c3ccccc3)C2C1 (stereo unspecified)	24	29	2.1	i
42	COc1cccc(C(=O)N[C@@H](Cc2cccnc2)C(=O)N2CCC[C@H]2C(=O)NCCc2ccccc2Cl)c1	-12	-7	2.5	i
43	C[C@H](CO)N1C[C@H](C)[C@@H](CN(C)Cc2ccc(C(F)(F)F)cc2)OCCCC[C@H](C)Oc2ccc(NC(=O)Nc3ccc(C(F)(F)F)cc3)cc2C1=O	3	2	-0.4	i
44	C[C@@H]1CCCCO[C@@H](CN(C)CC2CCCCC2)[C@H](C)CN([C@@H](C)CO)C(=O)c2cc(NC(=O)NC3CCCCC3)ccc2O1	2	5	3.6	i
45	COc1ccc(NC(=O)N(C)C[C@H]2OCCCC[C@@H](C)Oc3ccc(NC(=O)Nc4cccc5ccccc45)cc3C(=O)N([C@H](C)CO)C[C@@H]2C)cc1	0	-1	-0.9	i
46	Cc1noc(C)c1S(=O)(=O)N(C)C[C@H]1OCCCC[C@@H](C)Oc2ccc(NC(=O)Nc3ccc4c(c3)OCO4)cc2C(=O)N([C@@H](C)CO)C[C@@H]1C	2	10	-2.1	i
47	CN1OC[C@@H]2CN(C(=O)C3CCCCC3)[C@H](c3ccc(N4CCCCC4)cc3)C[C@@H]21	19	7	11	i
48	N#Cc1cccc(-c2ccc(C3[C@@H]4CN(C(=O)c5ccc6c(c5)OCO6)C[C@H]3N4)cc2)c1 (stereo partly specified)	-6&1	-8&6	-2.6&2.3	i
49	COC(=O)C[C@H]1CC[C@@H]2[C@@H](COc3ccc(NS(C)(=O)=O)cc3C(=O)N2C)O1	1	1	-1.6	i
50	CCC(=O)N1CC(=O)N2[C@H](C1)[C@@H](c1ccc(C#CC3CCCCC3)cc1)[C@@H]2CO	8	-25	10	i

Next part
no.	SMILES	Ecoli rRNA inh	Ecoli rRNA inh OD600	Ecoli rRNA inh RFP	FGF22 binding
51	Cn1cc(CC(=O)Nc2ccc(Nc3cccnc3)c(Br)c2)c2ccccc21	-16	-32	1.1	i
52	C[C@@H]1CCCCO[C@@H](CN(C)C(=O)CCCN(C)C)[C@@H](C)CN([C@H](C)CO)C(=O)c2cc(NC(=O)Nc3ccc(C(F)(F)F)cc3)ccc2O1	4	8	0.2	i
53	C[C@@H]1CN([C@H](C)CO)C(=O)c2cc(NC(=O)Nc3ccc4c(c3)OCO4)ccc2O[C@H]1CN(C)C(=O)Nc1ccc(F)cc1	-3	-2	-0.2	i
54	COc1ccc(CN(C)C[C@@H]2OCCCC[C@@H](C)Oc3ccc(NS(=O)(=O)c4c(C)noc4C)cc3C(=O)N([C@@H](C)CO)C[C@H]2C)cc1	1	7	1.9	i
55	COc1ccc(CN(C)C[C@H]2OCCCC[C@H](C)Oc3ccc(NS(=O)(=O)c4c(C)noc4C)cc3C(=O)N([C@@H](C)CO)C[C@@H]2C)cc1	-1	1	2.0	i
56	CN(C)C(=O)C[C@@H]1CC[C@@H]2[C@H](COC[C@@H](O)CN2C(=O)c2ccncc2)O1	9	25	0.6	i
57	O=C(Nc1ccccc1F)N1[C@@H]2CNC[C@H]1C2c1ccc(-c2ccncc2)cc1 (stereo partly specified)	1&8	-1&6	0.8&1.5	i
58	C[C@@H]1CCCCO[C@@H](CN(C)S(=O)(=O)c2ccc(Cl)cc2)[C@@H](C)CN([C@H](C)CO)C(=O)c2cc(NS(=O)(=O)c3ccc(Cl)cc3)ccc2O1	3	5	-0.6	i
59	Cc1ccc(S(=O)(=O)Nc2ccc3c(c2)C(=O)N([C@H](C)CO)C[C@@H](C)[C@H](CN(C)Cc2ccccc2)OCCCC[C@H](C)O3)cc1	-1	-19	6.0	i
60	COc1ccc(N/C(=C\C(=O)c2ccccc2)c2ccccc2)cc1OC	-12	-13	1.6	i
61	Cc1noc(C)c1S(=O)(=O)Nc1ccc2c(c1)CC(=O)N([C@@H](C)CO)C[C@@H](C)[C@@H](CN(C)C(=O)Nc1ccc3c(c1)OCO3)O2	-1	-1	-1.8	i
62	CN1C(=O)c2cc(NC(=O)c3ccc(C(F)(F)F)cc3)ccc2OC[C@@H]2O[C@H](CC(=O)NCc3ccc4c(c3)OCO4)CC[C@@H]21	-5	-2	-0.4	i
63	C[C@@H]1CCCCO[C@H](CN(C)Cc2ccc3c(c2)OCO3)[C@H](C)CN([C@@H](C)CO)C(=O)c2cc(NC(=O)Nc3cccc4ccccc34)ccc2O1	-7	-27	10	i
64	CN1CCCCC(NC(=O)c2ccc(C#N)cc2)C1=O (stereo unspecified)	10	9	1.1	i
65	O=C(C[C@H]1CC[C@@H]2[C@H](COC[C@H](O)CN2C(=O)c2ccncc2)O1)NCc1cccc(F)c1	5	3	-3.7	i
